High-throughput results from PubChem.
ALR H2O2 inh: blocks human ALR sulfhydryl oxidase activity. actives 3.8% (n = 290,000). inhibition, % (no concentration beside the values). purified ALR, DTT oxidation, H2O2 HRP-luminol luminescence. P55789;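 active = mean and each replicate at 75% or more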;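 also: stock transfer was 7.5 nL into about 7.5 µL; 0% = neutral wells and 100% = wells with inactivated enzyme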
UCH37 inh: human UCH37 deubiquitinating enzyme inhibition. Q9Y5K5. purified proteasome/UCH37, Ub-AMC cleavage fluorescence. inhibition, % (concentration not given with the values). actives 0.33% (n = 330,000). AID 588478;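 active = mean of two replicates above 20%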;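 also: 0% = compound-free wells with enzyme and 100% = wells lacking proteasome; stock transfer was 100 nL into about 20 µL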
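System: Proteasome-associated human UCH37 deubiquitinase; Input: 0.15 nM proteasome in added enzyme buffer; Also added: Ub-AMC substrate from 1 µM stock; Incubation: 30 min compound-proteasome preincubation then 25 min substrate reaction, room temperature; Detection: fluorescence, ex 355 nm, em 460 nm; Read-out: % inhibition of Ub-AMC cleavage fluorescence; Benchmarks: no-proteasome and no-compound wells.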
Ecoli rRNA inh: selective bacterial rRNA inhibition in E. coli; actives 1.6% (n = 350,000); E. coli WT GFP vs humanized-ribosome RFP mutants, fluorescence, 24 h; active compounds read low; DMSO median 0, no signal -100; GFP signal change (wild-type ribosome), % (no concentration beside the values); AID 720706;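 active = significant combined selectivity score with lowered wild-type GFP, culture density cut under 30%, mutant RFP and density less affected; inactive = any of these conditions unmet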; also: one replicate is shown; some compounds called inactive have numbers as strong as hits
E coli growth: E. coli growth inhibition; OD600 absorbance (concentration not given with the values); Escherichia coli growth, OD600, 23 h; active compounds read low; actives 0.21% (n = 330,000);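 active = OD600 absorbance below the run mean of sample wells minus 3.6 SD, in any replicate, cut at about 0.56 in these data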;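 also: stock transfer was 300 nL into about 60 µL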
FGF22 binding: FGF22 (human) thermal shift binding; recombinant FGF22 thermal shift, SYPRO orange fluorescence; percent of sucrose octasulfate shift, DMSO zero; AID 651658; calls only at 9.99 µM; actives 1.5% (n = 340,000); Q9HCT0;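 active = melting point raised past a set limit in the mean and every replicate; three in four hits are not shown here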
Target sequence (Q9HCT0 whole entry, looked up): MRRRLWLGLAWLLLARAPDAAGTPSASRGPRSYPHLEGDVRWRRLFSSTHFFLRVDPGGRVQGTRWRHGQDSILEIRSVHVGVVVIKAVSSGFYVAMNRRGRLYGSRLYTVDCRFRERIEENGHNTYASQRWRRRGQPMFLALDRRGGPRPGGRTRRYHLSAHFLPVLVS
B2AR ag: activates human beta-2 adrenergic receptor causing internalization; response, % (test concentration not listed); P07550; actives 0.43% (n = 340,000); Am2.2-beta2AR cells, FAP receptor internalization, flow cytometry; reference of the scale not given here;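 active = response above a set limit, near 3 SD of response in nonfluorescent compounds, cut at about 42% in these data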;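 also: stock transfer was 100 nL into about 11 µL; a reference agonist was the positive control; negative values mostly stem from fluorescent compounds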
Target sequence (P07550 whole entry, looked up): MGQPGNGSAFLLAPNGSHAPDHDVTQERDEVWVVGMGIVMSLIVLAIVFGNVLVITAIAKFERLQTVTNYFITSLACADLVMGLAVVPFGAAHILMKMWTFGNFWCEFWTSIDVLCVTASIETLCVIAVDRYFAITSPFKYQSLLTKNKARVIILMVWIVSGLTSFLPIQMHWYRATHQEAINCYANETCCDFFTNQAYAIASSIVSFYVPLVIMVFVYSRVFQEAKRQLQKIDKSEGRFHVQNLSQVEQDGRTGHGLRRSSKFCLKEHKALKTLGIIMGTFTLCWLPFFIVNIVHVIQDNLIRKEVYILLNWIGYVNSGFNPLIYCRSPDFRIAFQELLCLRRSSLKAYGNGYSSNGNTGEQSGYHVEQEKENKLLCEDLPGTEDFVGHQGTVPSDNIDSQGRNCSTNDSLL
HNF4A DNA FP: change in binding of human HNF4 alpha to DNA; P41235; actives 0.3% (n = 360,000); HNF4a-FITC DNA binding, fluorescence polarization, 1 h; AID 1224865; activity change, % at 10 µM; in the data active = activity change above about 30%, passing the limit was not always enough;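 also: controls were the assay level and a saturating level of protein; the project sought stronger binding though the title names inhibitors; some compounds called inactive have numbers as strong as hits; positive values seem to mean higher polarization but the record does not say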
Target sequence (P41235 whole entry, looked up): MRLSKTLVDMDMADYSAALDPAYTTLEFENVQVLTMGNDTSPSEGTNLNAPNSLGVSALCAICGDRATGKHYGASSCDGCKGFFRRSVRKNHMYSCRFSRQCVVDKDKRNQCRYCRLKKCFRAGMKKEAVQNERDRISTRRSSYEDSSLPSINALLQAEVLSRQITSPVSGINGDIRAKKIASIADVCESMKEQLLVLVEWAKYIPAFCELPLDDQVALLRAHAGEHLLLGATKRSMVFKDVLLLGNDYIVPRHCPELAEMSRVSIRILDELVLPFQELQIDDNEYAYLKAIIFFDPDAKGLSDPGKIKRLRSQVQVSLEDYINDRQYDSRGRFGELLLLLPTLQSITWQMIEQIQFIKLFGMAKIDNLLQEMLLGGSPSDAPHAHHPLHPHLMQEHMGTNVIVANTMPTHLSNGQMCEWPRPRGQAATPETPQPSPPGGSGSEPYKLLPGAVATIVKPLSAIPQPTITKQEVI
Ecoli rRNA inh OD600: recorded beside Ecoli rRNA inh, whose call it bears; OD600 change, %; measured here: OD600 growth;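 optical density of the mix in the first replicate; 0 = DMSO median and -100 = no signal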
Ecoli rRNA inh RFP: also measured in Ecoli rRNA inh; calls as there; RFP signal change, %; measured here: RFP humanized mutant strains;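 first replicate; 0 = DMSO median and -100 = no signal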
* hit, by the source's call; i = inactive; nt = not tested or not shown; & = joins results of further samples. A portion of the library (hit frequency here may not be typical).

SMILES	ALR H2O2 inh	UCH37 inh	Ecoli rRNA inh	Ecoli rRNA inh OD600	Ecoli rRNA inh RFP	E coli growth	FGF22 binding	B2AR ag	HNF4A DNA FP
CC(C)CNC(=S)N(Cc1ccco1)Cc1cc2cc3c(cc2[nH]c1=O)OCCO3	-17	-24	nt	nt	nt	0.67	nt	7	4.7
Cc1ccccc1N=C/C=C1\N(C)c2ccccc2C1(C)C	12	8.1	nt	nt	nt	0.65	nt	4	4.8
Cc1cccc(-n2ncc3c2CCCC3NC(=O)CCc2ccncc2)c1C (stereo not drawn)	nt	0.3	6	5	3.7	0.7	i	-6	0.7
C/C(N)=C(/C#N)C(=O)COC(=O)c1cc(-c2cccc(Br)c2)nc2ccccc12	-11	-2.2	nt	nt	nt	0.72	i	-4	1.4
COc1ccc(OCC(=O)Nc2c3c(nn2-c2ccc(OC)cc2)CS(=O)(=O)C3)cc1	-24	3.2	19	13	3.0	0.66	i	3	-0.6
CCN(CC)CCN(C(=O)c1ccc(S(=O)(=O)N2CCOCC2)cc1)c1nc2cc3c(cc2s1)OCCO3	-2	4.0	6	10	1.5	0.68	i	3	1.8
CN(Cc1ccc(F)cc1)C(=O)C(Cc1ccccc1)NC(=O)c1ccccc1 (stereo not drawn)	0	3.3	9	4	-0.2	0.68	i	10	2.7
CCOC(=O)c1cnc(-n2[nH]c(C)c(Cc3ccccc3)c2=O)[nH]c1=O	14	3.8	-43	-49	-10	0.64	i	-9	-0.3
COc1ccc2noc3c2c1C(=O)c1ccccc1-3	nt	nt	-13	-22	32	nt	i	-555	-105
COc1ccc(NS(=O)(=O)c2ccc(N3CCCC3)c(N)c2)cc1	92*	5.1	1	-12	-1.7	0.7	i	3	3.7
Cc1ccc(Nc2nnc(SC/C(O)=C(\C#N)c3nc4ccccc4[nH]3)s2)c(C)c1	0	-17	nt	nt	nt	0.7	nt	0	12
Cc1ccc(NC(=S)NC(=O)c2ccc(F)cc2)cc1S(=O)(=O)Nc1cccc(Cl)c1	-11	1.7	-17	-9	-0.4	0.77	i	9	-8.9
N#CCC(=O)Nc1ccc(C(=O)OCC(=O)Nc2cccc(C(F)(F)F)c2)cc1	13	0.0	1	-5	21	0.65	i	-1	7.1
COc1ccc(N2CCN(/C(=N\S(=O)(=O)c3ccccc3)Nc3nc(C)cc(C)n3)CC2)cc1	44	nt	nt	nt	nt	nt	nt	4	1.7
COc1ccc(CN(C)C(=O)c2ccc3ccccc3n2)cc1F	-4	2.9	0	-2	5.0	0.68	i	0	2.6
CC(SC1=Nc2ccccc2C2CC=NN12)C(=O)NC1(C#N)CCCCC1 (stereo not drawn)	-10	4.5	-5	-13	3.1	0.69	i	4	0.6
CN(C)CCN1C(=O)C(=O)/C(=C(/O)c2ccccc2)C1c1ccccc1F (stereo not drawn)	8	3.0	nt	nt	nt	0.74	nt	-2	0.2
COc1cc(-c2cc(C(F)(F)F)n3ncc(C(=O)O)c3n2)cc(OC)c1OC	-16	0.4	nt	nt	nt	0.71	nt	5	-1.7
Cc1ccccc1OCC(=O)Nc1cc(S(=O)(=O)N2CCOCC2)ccc1N1CCCC1	-6	0.7	nt	nt	nt	0.7	i	11	1.9
Cn1c(=O)c(C(=O)NCCO)c(O)c2ccccc21	nt	-0.5	nt	nt	nt	0.76	nt	-7	1.5

Record cards, from the list above. Screens in order: ALR H2O2 inh | UCH37 inh | Ecoli rRNA inh | Ecoli rRNA inh OD600 | Ecoli rRNA inh RFP | E coli growth | FGF22 binding | B2AR ag | HNF4A DNA FP
Record of CN(C)CCN1C(=O)C(=O)/C(=C(/O)c2ccccc2)C1c1ccccc1F (stereo not drawn) : 8 | 3.0 | nt | nt | nt | 0.74 | nt | -2 | 0.2
Record of COc1ccc(NS(=O)(=O)c2ccc(N3CCCC3)c(N)c2)cc1 : 92* | 5.1 | 1 | -12 | -1.7 | 0.7 | i | 3 | 3.7

ALR H2O2 inh, what is marked active above.
| SMILES | ALR H2O2 inh | UCH37 inh | Ecoli rRNA inh | Ecoli rRNA inh OD600 | Ecoli rRNA inh RFP | FGF22 binding | B2AR ag | HNF4A DNA FP |
| --- | --- | --- | --- | --- | --- | --- | --- | --- |
| COc1ccc(NS(=O)(=O)c2ccc(N3CCCC3)c(N)c2)cc1 | 92* | 5.1 | 1 | -12 | -1.7 | i | 3 | 3.7 |

The listing continues:
SMILES	ALR H2O2 inh	UCH37 inh	Ecoli rRNA inh	Ecoli rRNA inh OD600	Ecoli rRNA inh RFP	E coli growth	FGF22 binding	B2AR ag	HNF4A DNA FP
CCCOc1ccc(-c2nnn(CC(=O)OCC)n2)cc1	-7	3.9	nt	nt	nt	0.72	nt	11	0.4
Cc1ccc(NC(=O)CSc2nnc(CNC(=O)c3c(F)cccc3Cl)o2)cc1	98*	-0.1	nt	nt	nt	0.7	nt	-6	0.3
COc1ccc2nc(Nc3nc4ccc(NC(C)=O)cc4s3)sc2c1	3	nt	22	19	-2.8	nt	i	11	-0.3
Cc1ccc(-n2nc3c(=O)n(CC(=O)NCc4ccccc4)nc(C)c3c2C)cc1	-14	2.3	-2	2	0.4	0.73	i	4	-0.3
COc1ccc(NC2CCCN(C(=O)c3ccc(C)nc3)C2)cc1 (stereo not drawn)	99*	2.6	21	21	5.7	0.7	i	6	4.3
NC1=NC(=O)CC(C(=O)Nc2cccc3ccccc23)S1 (stereo not drawn)	-9	3.8	nt	nt	nt	0.7	nt	-1	2.4
COc1ccc(CCOC(=O)c2cccc(NC(C)=O)c2)cc1	33	4.9	-2	2	-0.3	0.73	i	0	3.0
COC(=O)/C=C(\C)NC(=O)c1cccs1	-2	4.0	nt	nt	nt	0.71	nt	0	-1.7
O=C(CSc1nnc(-c2ccc(Cl)cc2)n1CC1CCCO1)NC1CCS(=O)(=O)C1 (stereo not drawn)	1	-1.1	11	3	-1.0	0.66	i	3	-3.7
Clc1ccc(CN2CCN(c3ncccn3)CC2)cc1Cl	4	3.2	-24	-21	-4.4	0.66	i	9	-1.6
CCOc1ccc(S(=O)(=O)N2CCN(C(=O)c3ccc(-n4cncn4)c([N+](=O)[O-])c3)CC2)cc1	-22	2.7	2	16	-1.4	0.68	i	5	1.6
O=C(Cn1ccc2ccccc2c1=O)NCC(=O)N1CCCCC1	-44	-0.3	3	5	-2.1	0.67	i	1	-2.9
COc1ccc(CN(C)C[C@H]2OCc3cnnn3CCCC(=O)N([C@H](C)CO)C[C@@H]2C)cc1	nt	nt	1&2	2&-2	-0.5&1.7	nt	i	nt	4.6
CC1CCC(CN2CCN=C2N(C)C)CC1 (stereo not drawn)	-12	-0.3	18	7	8.4	0.66	i	-12	3.8
Cn1c(=O)c2c(nc(Cc3ccccc3)n2C)n(C)c1=O	-1	1.5	12	18	-1.9	0.67	i	-4	-0.9
COc1cc(C(=O)OCc2ccc(C)cc2)cc(NC(=O)c2cccs2)c1OC	-12	-234	5	5	-0.9	0.69	i	-5	0.1
Fc1ccc(-c2cc(-c3cccs3)cc(-c3ccccc3)n2)cc1	0	2.9	11	20	0.7	0.64	i	18	3.0
O=C(CCNC(=O)Cn1ccc2ccccc2c1=O)NCc1ccc(F)cc1Cl	-5	-19	3	4	-0.9	0.66	i	-4	-2.6
CCOc1cc(NS(C)(=O)=O)c(OCC)cc1NC(=O)c1cccs1	16	4.5	nt	nt	nt	0.73	nt	-2	1.3
COc1cccc(C2C(C(N)=O)=C(C)Nc3nc(CCCO)nn32)c1OC (stereo not drawn)	2	-1.1	5	12	0.6	0.75	i	0	2.1
CC1CC(C)CN(S(=O)(=O)N2CCCC(C(=O)NCc3ccccc3Cl)C2)C1 (stereo not drawn)	-1	0.3	3	24	1.0	0.65	i	1	-3.2
O=C(O)c1ccccc1-c1ccccc1C(=O)NNc1ccc([N+](=O)[O-])cc1	-20	10	7	3	-4.7	0.66	i	3	-5.5
CC(C)OC(=O)CCCN1C(=O)c2ccc(N)cc2C1=O	-1	nt	nt	nt	nt	0.68	nt	7	-1.7
Cc1nnc(NC(=O)c2ccc(S(=O)(=O)N3CC(C)CC(C)C3)cc2)o1 (stereo not drawn)	2	-0.5	-4	5	-2.4	0.69	i	3	1.9
COc1ccc(C(C)(O)c2nc(-c3cccc(NC(C)=O)c3)cs2)cc1 (stereo not drawn)	nt	nt	-2	2	3.3	nt	i	nt	0.8
COc1cc(NS(=O)(=O)c2csc(C(N)=O)c2)cc(OC)c1	-7	0.6	5	0	1.3	0.66	i	-1	-0.1
CCCCC(C(=O)O)C(C)CC(=O)Nc1cccc(C(=O)O)c1 (stereo not drawn)	5	0.2	nt	nt	nt	0.62	nt	3	-1.1
COc1ccc(NC(=O)c2ccc(S(=O)(=O)N3CCOCC3)cc2)c(OC)c1	-12	5.0	nt	nt	nt	0.69	nt	-4	1.7
Cc1c(NC(=O)/C(C#N)=C/C2CC=CCC2)c(=O)n(-c2ccccc2)n1C (stereo not drawn)	38	4.8	nt	nt	nt	0.73	nt	1	-0.9
CC1CC(=O)N(c2ccc(C(C)C)cc2)C(=O)C1	-4	0.7	1	3	-5.9	0.67	i	1	-3.8
O=C(c1cccnc1)N(Cc1ccccc1)C(=O)c1cccnc1	nt	4.2	2	4	-0.2	0.7	i	-4	-0.3
CCCCCOc1ccc(C(=O)N(Cc2ccco2)C2CCS(=O)(=O)C2)cc1 (stereo not drawn)	0	6.4	1	2	5.5	0.66	i	-1	-2.0
COc1c(/C=N/NC(=O)[C@H]2C[C@@H]2c2ccccc2)c(CCN(C)C(C)=O)cc2c1OCO2	nt	nt	-4	-4	0.2	nt	i	0	-0.8
O=S(=O)(Nc1ccc2c(c1)OCCO2)c1c(F)cccc1F	nt	0.4	2	2	-3.8	0.71	i	-9	3.0
O=C(Cn1cccc1C(=O)c1ccccc1)NCc1ccco1	1	3.2	nt	nt	nt	0.63	nt	2	-2.4
O=C(N/N=C/c1cccn1-c1ccc([N+](=O)[O-])cc1)c1cccnc1	1	nt	14	1	0.8	nt	i	12	2.5
COC(=O)c1sccc1-n1cccc1C(=O)C(=O)N1CC(C)OC(C)C1 (stereo not drawn)	1	7.3	nt	nt	nt	0.76	nt	-2	1.4
Cn1c(=O)[nH]c(=O)c2c1nc(CN1CCN(c3ccccc3F)CC1)n2CC(N)=O	-1	1.7	6	10	2.7	0.71	i	4	-1.4
O=C(NCc1ccccc1Cl)c1ccccc1CCc1ccccc1	0	4.5	-13	-4	-1.8	0.74	i	0	-4.0
COc1ccc(S(=O)CC(=O)Nc2ccc(Cl)cc2Cl)cc1 (stereo not drawn)	-3	4.5	0	-4	-5.1	0.7	i	0	-0.4
O=C1C=C(c2cccc(O)c2)CCC1	nt	-0.4	nt	nt	nt	0.67	nt	-2	-5.9
CC(C)(C)c1ccc(C(=O)N2CCCCCC2=O)cc1	-9	0.0	nt	nt	nt	0.74	nt	-1	-6.3
CC(C(=O)Nc1ccccc1)C(=O)Nc1ccccc1	6	3.1	-1	-12	-0.8	0.73	i	10	4.0

Quoted at random: 2 compounds from above.
SMILES	ALR H2O2 inh	UCH37 inh	Ecoli rRNA inh	Ecoli rRNA inh OD600	Ecoli rRNA inh RFP	E coli growth	FGF22 binding	B2AR ag	HNF4A DNA FP
O=C(N/N=C/c1cccn1-c1ccc([N+](=O)[O-])cc1)c1cccnc1	1	nt	14	1	0.8	nt	i	12	2.5
COc1ccc(OCC(=O)Nc2c3c(nn2-c2ccc(OC)cc2)CS(=O)(=O)C3)cc1	-24	3.2	19	13	3.0	0.66	i	3	-0.6

Looked up above:
UCH37 inh with O=C1C=C(c2cccc(O)c2)CCC1 reads -0.4
Ecoli rRNA inh OD600 with COc1ccc(S(=O)CC(=O)Nc2ccc(Cl)cc2Cl)cc1 (stereo not drawn) reads -4
